Screening data from PubChem.
Kir21 inh: inhibitors of mouse Kir2.1 inward-rectifier potassium channel; Inward rectifier potassium channel 2 (Mus musculus), P35561; HEK293-Kir2.1, FluxOR thallium flux fluorescence; stronger effect = lower value; B-score at 10 µM; 310,000 tested, 0.85% active;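 active = fluorescence ratio B-score at or below minus 3 SD of library scores, with starting-brightness B-score within 2 SD, cut at about -4.2 in these data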;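 also: channel flux triggered by added potassium and thallium sulfate stimulus; B-score of peak minus minimum fluorescence over baseline after thallium stimulus; more negative B-score means stronger Kir2.1 block with less thallium influx; some compounds called inactive have numbers as strong as hits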
Target sequence (P35561 whole entry, looked up): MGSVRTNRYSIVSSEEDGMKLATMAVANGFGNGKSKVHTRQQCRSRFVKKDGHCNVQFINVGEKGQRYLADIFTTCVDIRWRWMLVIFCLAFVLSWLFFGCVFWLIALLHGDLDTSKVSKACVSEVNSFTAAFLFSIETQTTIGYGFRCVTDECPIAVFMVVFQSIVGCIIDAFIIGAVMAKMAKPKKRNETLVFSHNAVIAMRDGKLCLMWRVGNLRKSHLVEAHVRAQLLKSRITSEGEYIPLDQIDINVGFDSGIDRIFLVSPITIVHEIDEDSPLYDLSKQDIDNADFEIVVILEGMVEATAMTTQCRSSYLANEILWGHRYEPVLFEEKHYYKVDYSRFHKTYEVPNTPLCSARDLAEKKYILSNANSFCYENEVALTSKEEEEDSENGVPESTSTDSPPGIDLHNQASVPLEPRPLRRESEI
* = called active by the depositor.

SMILES	Kir21 inh
COc1ccc(-n2c(Cc3cccn3C)nnc2SCC(=O)Nc2cccc(C)c2C)cc1	-1.46
CCNc1nc(NC(C)C)nc(NS(=O)(=O)c2ccc(Cl)cc2)n1	-1.29
COc1ccc(C2SCC(=O)N2c2ccccc2)cc1 (stereo not given)	-1.69
COc1ccc2c(c1)C(=O)N(c1ccccc1)C(=O)C2	-0.99
Cc1cc(=O)oc(C)c1C(=O)NNC(=O)C1(C)CC1Br (stereo not given)	-1.82
Cn1c(=O)c(-c2cc(Br)ccc2N)nc2ccccc21	-0.04
O=C(COc1ccccc1)NCC(=O)Nc1cccc2ccccc12	0.63
C=CCn1cc(/C=N/Nc2nc3ccccc3[nH]2)c2ccccc21	-3.76
O=C(Nc1nnc(Cc2ccccc2)s1)Nc1ccccc1F	0.14
CCCN1C2CCCC1CC(NC(=O)c1cc(OC)c(OC)c(OC)c1)C2 (stereo not given)	0.01
Cc1cc(C)nc(NC(N)=S)n1	-0.27
Cc1c(NC(=O)CCC2CCCCC2)cc(C(=O)N2CCOCC2)cc1[N+](=O)[O-]	0.56
COc1ccc(-c2cc(C(=O)NC3CCCC3)no2)cc1	0.02
CCOC(=O)Cc1csc(SCC(=O)N2CCN(c3ccc(OC)cc3)CC2)n1	0.27
C/C=C/COC(=O)c1[nH]c2c(c1C)C(=O)CC(c1ccco1)C2 (stereo not given)	1
CC(=O)c1ccc(OCC(O)CN2CCCC(C)C2)cc1 (stereo not given)	-2.22
CCOC(=O)C(NC(C)=O)C(=O)Nc1c(C)cccc1C (stereo not given)	1.49
Cc1noc(NS(=O)(=O)c2ccc(NC(=O)COc3ccccc3)cc2)c1C	0.05
CN(C)S(=O)(=O)c1ccc(C(=O)OCC2CC2(Cl)Cl)cc1 (stereo not given)	-0.01
COc1ccccc1NC(=O)CSc1nn2c(=O)c(C)nnc2s1	-1.27
O=C(Cn1c(=O)sc2ccccc21)NCc1ccccn1	0.27
CC1(C)Cc2c(C#N)c(NCCN3CCOCC3)nc(-c3ccco3)c2CO1	-0.12
CCCc1cc(C(=O)OC)c(NC(=O)c2cc(C)on2)s1	-0.68
O=C(c1cccc2ccccc12)C1CCCN(C(=O)CCN2CCCO2)C1 (stereo not given)	0.85
COc1ccc(-c2cc(C(F)(F)F)n3ncc(C(=O)N4CCc5ccccc5C4)c3n2)cc1	-1.18
Cc1ccc(C(=O)Nc2ccc3c(c2)nc(CCNC(=O)c2ccco2)n3C)cc1	-0.98
CC(NC(=O)CN1CCOCC1)c1ccccc1 (stereo not given)	-0.64
COc1cc(OC)c(/C=N/n2c(C3CCCCC3)n[nH]c2=S)c(OC)c1	-0.79
CCN(CC)CCN1C(=O)c2ccccc2NC1c1ccc(F)cc1 (stereo not given)	0.04
Cc1ccccc1-n1nnnc1SC(C)C(=O)NC1CCCc2ccccc21 (stereo not given)	-0.82
CCOc1ccc(C2C(C#N)=C(N)Oc3n[nH]c(C)c32)cc1OC(=O)C1CC1 (stereo not given)	0.36
COc1ccccc1Oc1ccc(S(=O)(=O)Nc2cccnc2)cc1	-1.63
CC1CCc2sc(C(=O)OCC(=O)NCc3ccccc3)cc2C1 (stereo not given)	-1.51
CCCC(=O)Nc1c(-c2cccc(OC)c2)c(=O)c2ccccc2n1C	0.05
CC(C)(C)NS(=O)(=O)c1ccc2[nH]c3c(c2c1)CCCCC3	1.07
Cc1csc(NC(=O)c2cc([N+](=O)[O-])cc([N+](=O)[O-])c2)n1	-0.98
CCCCN(CC)C(=O)c1ccc(-c2ccccc2)cc1	0.91
O=C(Cn1nnc(-c2cccc(C(F)(F)F)c2)n1)NNS(=O)(=O)c1cccc(C(F)(F)F)c1	1.5
COCCNC(=O)c1onc(CSc2ccc(C(C)C)cc2)c1C(=O)O	1.05
CC(C)c1ccc(OCc2cccc(C(=O)N/N=C/c3cccnc3)c2)cc1	-2.35
CC(/C=N/NC(=O)c1cc(C(C)C)[nH]n1)=C\c1ccccc1	0.58
O=C(CSc1nnc(Nc2ccccc2)s1)NCc1ccco1	0.85
O=C(Nc1ccc2c(c1)OCCO2)c1coc2ccccc2c1=O	0.35
CCn1c(SCC(N)=O)nnc1-c1cc2c(C)nn(-c3ccccc3)c2s1	0.02
O=C(O)CCc1ncc(C(F)(F)F)cc1Cl	0.18
Cc1ccccc1OCC(=O)NNC(=O)C1CCN(c2ncnc3sc(C)c(C)c23)CC1	-0.04
Fc1ccc(N2CCN(c3nc(CN4CCOCC4)nc4scc(-c5ccccc5)c34)CC2)cc1	-0.12
CN(C)Cc1n[nH]c(=O)c2ccccc12	1.45
Oc1cccc(Nc2nc(N3CCOCC3)nc(N3CCOCC3)n2)c1	0
CCN(Cc1ccccc1)S(=O)(=O)c1c[nH]c(C(=O)OC)c1	-1.19
COc1ccc(OCC(=O)Nn2c(-c3ccc(C)cc3)nc3ccccc3c2=O)cc1	-1.51
CN(C(=O)c1ccco1)c1nc(-c2ccc(F)cc2)cs1	-0.22
O=S(=O)(Nc1cccc(-c2cn3cccnc3n2)c1)c1ccccc1	-0.26
C=CCNC(=O)c1sc(-c2ccccc2)nc1C	-0.85
C=C1CCN([C@H](C(=O)NCc2ccco2)C(C)C)S(=O)(=O)c2ccccc21	0.46
CC(=O)N1CCN(c2ccc(NC(=O)c3ccc(Cl)c([N+](=O)[O-])c3)cc2)CC1	-0.78
Cc1nc(C(F)(F)F)ccc1C(=O)Nc1ccccc1F	0.15
CCc1nc(SCC(=O)c2ccccc2)c2c(=O)n(C)c(=O)n(C)c2n1	-0.65
C#CCOCCOCCOCCNc1nc(N2CCN(C(=O)[C@H](CCC(=O)O)n3cc(C(N)Cc4ccc(O)cc4)nn3)CC2)nc(N2CCN(C(=O)[C@H](CCC(=O)O)n3cc(C(N)[C@H](C)CC)nn3)CC2)n1 (stereo not given in full)	-0.17
CCc1cc2cc3c(cc2nc1SCC(=O)N1CCN(C(=O)c2ccco2)CC1)OCO3	-0.06
New compounds follow:
SMILES	Kir21 inh
O=C(NNC(=O)c1ccccc1[N+](=O)[O-])Nc1ccccc1C(F)(F)F	-0.02
COc1ccc(/C=N/n2c(=S)n(C)c3ccccc32)cc1OC	0.08
CC(C)OC(=O)c1c2c(n3ccccc13)C(=O)c1ccccc1C2=O	-1.45
COC(=O)CSc1ccc(C#N)c(SCC(=O)OC)c1	0.34
O=C(NC1CC1)C1=C[C@@H](c2c[nH]c3ccccc23)C[C@@H](OCCCCO)O1	-0.14
Cc1[nH]c2nc3ccccc3n2c(=O)c1CCC(C)C	-1.47
CSc1ccc(NC(=O)N2CCC(C(=O)c3ccc(F)cc3)CC2)cc1	0.01
COc1ccccc1NC(=O)Nc1ccc2c(c1)CCC2	-1.31
Cc1nnc(SCC(=O)Nc2sc3c(c2C#N)CCCC3)[nH]c1=O	-0.49
COCCCn1c(=O)c2sccc2n2c(CCCC(=O)NCc3ccc(F)cc3)nnc12	-0.66
Cc1ccccc1CNC(=O)c1ccccc1	1.48
O=C(c1ccc(Cl)cc1)N1CCC(O)(CSc2ccc(Cl)cc2)CC1	-0.7
COc1ccc(OC)c(C(C)NC(=O)Nc2ccccc2)c1 (stereo not given)	-0.15
CCOc1ccc(S(=O)(=O)NNS(=O)(=O)c2ccc(C)cc2C)cc1	2.05
O=C(NCCNC(=O)c1ccc([N+](=O)[O-])cc1)c1ccncc1	0.94
CCC(C)NCC(=O)Nc1sc2c(c1C(N)=O)CCC2 (stereo not given)	1.64
CC(=O)Nc1ccc(S(=O)(=O)NNC(=S)NCC2CCCO2)cc1 (stereo not given)	-1.39
O=C(CNS(=O)(=O)c1ccccc1)OCC(=O)c1ccc(F)cc1	-1.5
COC(=O)N/N=C/c1cn(CCCOc2ccc(C)cc2)c2ccccc12	-0.05
Nc1c(C(=O)N/N=C/c2ccc(OCc3ccccc3)cc2)cnn1-c1ccccc1	-1.31
Cc1ccc(S(=O)(=O)NC(C)(C)CN2CCNCC2)cc1	-1.05
CCOc1ccc(N(C(C)C(=O)NN=C2CCCCCCC2)S(C)(=O)=O)cc1 (stereo not given)	1.05
CC(NS(=O)(=O)c1ccc(Cl)cc1)C(=O)Nc1ccc2c(c1)OCCO2 (stereo not given)	-0.76
CC(=O)CSc1nc2c(c(=O)[nH]c(=O)n2C)n1Cc1ccccc1Cl	-1.59

A stretch of the results above, as a working copy:
SMILES	Kir21 inh
CC(NS(=O)(=O)c1ccc(Cl)cc1)C(=O)Nc1ccc2c(c1)OCCO2 (stereo not given)	-0.76
CC(=O)CSc1nc2c(c(=O)[nH]c(=O)n2C)n1Cc1ccccc1Cl	-1.59

Next part
SMILES	Kir21 inh
CSc1nnc(NC(=O)c2nc(S(=O)(=O)Cc3ccccc3F)ncc2Cl)s1	-1.34
Cc1cccc(NC(=O)NCCN2C(=O)C3C4C=CC(C4)C3C2=O)c1 (stereo not given)	0.85
CC(=O)NCCc1csc(-c2ccccc2)n1	0.67
Cc1ccc(OCCN2C(=O)C(=O)c3cccc(C)c32)cc1	1.25
O=C(COc1ccc(Cl)cc1Cl)NNC(=O)c1cccnc1	1.17
O=C(CSc1nnc(C2CC2)n1Cc1ccco1)NCC(F)(F)F	1.64
CN(C)S(=O)(=O)c1ccccc1C#N	-1.28
Cc1cc(C)cc(C(=O)NN2CCOCC2)c1	-0.03
O=C(COC(=O)c1cnc(Cl)c(Cl)c1)NCc1ccc2c(c1)OCO2	-0.13
COc1ccccc1CNC(=S)NC1CCCC1	0
CCOc1ccc(NC(=O)C2CCCN(S(=O)(=O)c3c(C)noc3C)C2)cc1 (stereo not given)	0.1
N#Cc1c(NC(=O)COC(=O)c2ccc(F)cc2)sc2c1CCC2	0.06
Cc1ccc(/C=C/C(=O)NC(=S)N2CCN(C)CC2)cc1	0.91
CN(C)c1cccc(C(=O)OC(C(=O)Nc2ccc(Cl)cc2C(F)(F)F)c2ccccc2)c1 (stereo not given)	-1.38
O=C(Nc1ccc([N+](=O)[O-])cc1)c1ccccc1	0.21
Cc1c(N(C(=O)c2ccccn2)C2(C(=O)NC3CCCCC3)CCCCC2)c(=O)n(-c2ccccc2)n1C	-0.2
CC(=O)c1ccc(Sc2ccccn2)c([N+](=O)[O-])c1	1.13
CCOC(=O)c1ccccc1NC(=O)COC(=O)C1CCN(S(=O)(=O)c2ccccc2C(=O)OC)CC1	-0.05
Cc1ccc(N=Cc2cc3c(cc2[N+](=O)[O-])OCO3)cc1[N+](=O)[O-]	0.5
COCCNC(=O)c1ccccc1NC(=O)CN(c1ccc2c(c1)OCO2)S(C)(=O)=O	-0.96
CCOc1ccc(C(=O)CSc2nnc3ccccn23)cc1	0.01
O=C(NCc1ccccn1)C1CCN(S(=O)(=O)N2CCCCC2)CC1	-0.33
COc1ccc(S(=O)(=O)Nc2ccccc2OC)cc1NC(=O)Cc1cccs1	-1.05
COc1ccc(C(=O)NCC(=O)N2CCC3(CC2)NCCc2[nH]cnc23)cc1	-0.47
Cc1cc(C)c(-c2noc(C(=O)OC(C)(C)C)c2C(=O)OC(C)(C)C)c(C)c1	0.13
CCOC(=O)C1(CCCc2ccccc2)CCN(C(=O)c2cnc(C)cn2)CC1	-0.32
O=C(c1ccc(Br)cc1)C1CCc2occc2C1=O (stereo not given)	0.92
CCN(CC)CCCN(Cc1cc2cc3c(cc2[nH]c1=O)OCO3)C(=S)NC	-1.34
Cc1cccc(NC(=O)C2CCN(C(=O)NCc3ccccc3)CC2)c1C	-0.29
CC(C)CC(NC(=O)C(NC(=O)OC(C)(C)C)C(C)C)C(=O)NC(CCC(=O)OCc1ccccc1)C(N)=O (stereo not given)	-1.23
CCN(CC)c1ccc(C2C(C(=O)OC)=C(C)NC(C)=C2C(=O)OC)cc1	-0.06
COC(=O)c1sccc1Oc1c(Cl)cccc1[N+](=O)[O-]	0.74
O=C(O)c1ccccc1OC(=O)C12CC3CC(CC(C3)C1)C2	0.56
CC(=O)c1cccc(NC(=O)NNC(=O)c2ccc3ccccc3c2)c1	-0.09
COc1ccc(NC(=O)C(=O)NCc2ccncc2)c(OC)c1	-0.03
Cc1ccc(C(=O)Nc2ccc3c(c2)ncn3C)cc1	-1.42

Shown with each value named: four of the compounds above
> COc1ccc(OCC(=O)Nn2c(-c3ccc(C)cc3)nc3ccccc3c2=O)cc1
- Kir21 inh: -1.51
> CN(C(=O)c1ccco1)c1nc(-c2ccc(F)cc2)cs1
- Kir21 inh: -0.22
> O=S(=O)(Nc1cccc(-c2cn3cccnc3n2)c1)c1ccccc1
- Kir21 inh: -0.26
> C=CCNC(=O)c1sc(-c2ccccc2)nc1C
- Kir21 inh: -0.85

New compounds follow
SMILES	Kir21 inh
Cc1cc(=O)oc2cc(OCC(=O)NC3CC(C)(C)NC(C)(C)C3)ccc12	-1.07
Nn1c(SCC(=O)NC(=O)NCc2ccco2)nnc1-c1ccc(OC(F)F)cc1	0.68
Clc1ccc2nc(N3CCCCC3)[nH]c2c1	-0.01
COc1cc(/C=C(\NC(=O)c2ccccc2)C(=O)NCCO)c([N+](=O)[O-])cc1OC	-0.37
CN(c1ccc(C(=O)NC2CC3CCC2C3)cc1)S(C)(=O)=O (stereo not given)	0.19
c1ccc(C2[C@H]3CN(CC4CCCCC4)[C@H](c4ccccc4)C34CC2(c2ccccc2)C4)cc1 (stereo not given in full)	0.37
O=C(COc1ccccc1)Nc1ncc2c(n1)CCCC2=O	1.12
COCCCn1c(SCC(=O)NC2CCCC2)nnc1-c1ccccc1	0.63
CC1CCCC(C)N1C(=O)COc1ccc(-c2nnco2)cc1 (stereo not given)	-0.33
O=C1c2ccccc2NC2(CCCCC2)N1c1ccc(O)cc1	-0.69
Cc1ccc(-n2c(O)cnc2Nc2nc(C)cc(C)n2)cc1	0.17
Cc1ccc(N2C(=O)C3C(c4ccccc4)N4CCCN4C3(C)C2=O)cc1 (stereo not given)	0.81

Single values from above:
Kir21 inh result of `c1ccc(C2[C@H]3CN(CC4CCCCC4)[C@H](c4ccccc4)C34CC2(c2ccccc2)C4)cc1` (stereo not given in full) → 0.37
Kir21 inh result of `O=C(COc1ccccc1)Nc1ncc2c(n1)CCCC2=O` → 1.12
Kir21 inh result of `Cc1cc(=O)oc2cc(OCC(=O)NC3CC(C)(C)NC(C)(C)C3)ccc12` → -1.07
Kir21 inh result of `Nn1c(SCC(=O)NC(=O)NCc2ccco2)nnc1-c1ccc(OC(F)F)cc1` → 0.68

The list is partial; most or all hits stand in other tables.
